# Bioassay records as filed in PubChem.
# NPYLR7 agonist: mosquito NPYLR7 agonism; HEK293T NPYLR7/Galpha15, GCaMP6s calcium fluorescence; activation, % at 10 µM; hit rate 0.15% among 270,000; AID 1259423; in the data active = activation above about 40%;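 also: 0% = vehicle and 100% = reference agonist at the receptor; some compounds past the cut are filed as inactive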
# NPYLR7 agonist max-min: also measured in NPYLR7 agonist; calls as there; activation, %; measured here: Max-Min RFU normalised activation; some inactives read as strong as hits;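 span of the calcium signal over five minutes; 0% = vehicle and 100% = native peptide agonist; compound fluorescence can raise it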
# * hit, by the source's call; & = joins results of further samples.
entry	smiles	NPYLR7 agonist	NPYLR7 agonist max-min
1	COc1ccc(CCN(C)CC(C#N)CCC#N)cc1OC (stereo not given)	4	4
2	C#C[C@H]1CN2CC[C@H]1C[C@@H]2CNC(=O)CC(C)(C)CC(=O)O	-9	-16
3	Cc1cccc(-n2nc(-c3ccccc3)c3c2N(CC(=O)NC2CC2)C(=O)CSC3c2ccc3c(c2)OCO3)c1 (stereo not given)	9	19
4	Cc1ccccc1NC(=O)CC(=O)N1C[C@H]2C[C@@H](C1)c1cccc(=O)n1C2	-6	-10
5	O=C(NC1CCCc2ccccc21)C(C1CCCC1)N1CCN(C(=O)COc2ccc(Cl)cc2)CC1 (stereo not given)	0	1
6	CC1=C(O)C(=O)[C@@H]2O[C@@H]2C1=O	-3	-3
7	CC(C)(C)c1nn(-c2cccc(Cl)c2)c2c1C(c1ccc3c(c1)OCO3)SCC(=O)N2CC(=O)O (stereo not given)	-2	-7
8	Oc1ccc2c3c1O[C@H]1c4[nH]c5c(c4C[C@@]4(O)[C@@H](C2)N(CC2CC2)CC[C@]314)C[C@@]1(O)[C@H]2Cc3ccc(O)c4c3[C@@]1(CCN2CC1CC1)[C@H]5O4	0	-4
9	Cc1nc(CN2C[C@H](c3ccccc3)[C@@H]3[C@H]2C2CCN3CC2)co1	2	2
10	CCCNC(=O)CN1C(=O)CSC(c2cccc(Cl)c2)c2c(-c3ccccc3)nn(-c3ccc(OC)cc3)c21 (stereo not given)	28	25
11	Cc1ccc(CN(Cc2ccc3c(c2)OCO3)C(=O)CN(CCN2CCOCC2)C(=O)COc2ccccc2)o1	10	11
12	CC(Cc1ccccn1)N(C)Cc1ncc[nH]1 (stereo not given)	5	7

# Continuation.
entry	smiles	NPYLR7 agonist	NPYLR7 agonist max-min
13	C[C@@H]1C[C@@H]([C@H](O)CC2CC(=O)NC(=O)C2)C(=O)[C@@H](C)C1	-8&1	-12&1
14	O=C(Cc1ccc(F)cc1)N1CCN(C(c2ccccc2)c2ccc(Br)cc2)CC1 (stereo not given)	-1	5
15	O=C(Nc1ccc(Cl)c([N+](=O)[O-])c1)c1cccn(Cc2cccc(F)c2)c1=O	9	2
16	CN1CCN2CCN(C3CCNCC3)CC2C1=O (stereo not given)	6	-2
17	Cc1ccccc1C1SCC(=O)N(CC(=O)NCc2ccco2)c2c1c(C(C)(C)C)nn2-c1cccc(F)c1 (stereo not given)	19	30
18	COCCOCC(=O)N1CCC2(CCCNC2)C1 (stereo not given)	3	1
19	CN(CCc1ccccn1)C(=O)C1CC2(CCNCC2)CN1 (stereo not given)	2	-2
20	COc1ccc(-n2nc(C(C)(C)C)c3c2N(CC(=O)O)C(=O)CSC3c2ccccc2Cl)cc1 (stereo not given)	2	0
21	COC(=O)c1ccc(OC(C)C(=O)Nc2ccc(C#N)c(Cl)c2)c(OC)c1 (stereo not given)	-4	-3
22	COc1ccc2[nH]cc(CCN(Cc3ccccc3)Cc3ccccc3)c2c1	11	8
23	CN(C)C(=O)c1ccc(-c2cccc3c2CCNC3)nc1	18	10
24	CC(C)S(=O)(=O)N1CCCC2(CCNC2)C1 (stereo not given)	10	6

# Next entries follow:
entry	smiles	NPYLR7 agonist	NPYLR7 agonist max-min
25	O=P(Nc1ccccc1F)(Oc1ccccc1F)Oc1ccccc1F	40	53
26	COc1ncc(C(=O)N2CCN3CCN(C)C(=O)C3C2)cn1 (stereo not given)	4	2
27	Cc1ccc(C(CN)N(C)C)cc1 (stereo not given)	0	19
28	COc1ccccc1CC(=O)N1CCN(Cc2cccc(-c3noc(C4CCCC4)n3)c2)CC1	3	1
29	CCn1c(C)cc2c(c1=O)C1(C(=O)N(C)c3ccccc31)C(C(=O)OC)C(=N)O2 (stereo not given)	-6	-9
30	C=C1C2CC[C@H]3[C@]4(C)C[C@H](OC5OC(CO)C(OS(=O)(=O)O)C(OS(=O)(=O)O)C5OC(=O)CC(C)C)C[C@@H](C(=O)O)[C@H]4CC[C@]3(C2)[C@H]1O (stereo not given in full)	-7	-12
31	Cc1ccnc(-n2cc(C3=CCN(CC(=O)Nc4ccn(C)n4)CC3)cn2)c1	4	-3
32	COCCNC(=O)CN1C(=O)CSC(c2ccc3c(c2)OCO3)c2c(C(C)(C)C)nn(C(C)(C)C)c21 (stereo not given)	-4	6
33	N#Cc1ccc(NC(=O)C(=O)Nc2nc(C3CC3)cs2)cc1Cl	9	5
34	COc1ccc(OC)c(C2SCC(=O)N(CC(N)=O)c3c2c(C(C)(C)C)nn3-c2cccc(C)c2)c1 (stereo not given)	-6	6
35	COc1ccc(C(=O)N2CCCC2=O)cc1	-10&8	-17&-9
36	CC(C)n1ccnc1CN1CCC2(CC1)C(=O)N(C)c1ccccc12	3	0

# Remaining list, next part
entry	smiles	NPYLR7 agonist	NPYLR7 agonist max-min
37	Cc1ccc(N=P(N(C)C)(N(C)C)C(C)(C)C)c(C)c1	4	2
38	COc1cc2c(cc1OC)[C@@H]1C(=O)c3ccc4c(c3O[C@@H]1CO2)CC(C(C)C)O4 (stereo not given in full)	-5	-12
39	CC(C)(C)NC(=S)N1CCn2cccc2C1c1cccnc1 (stereo not given)	-2	-4
40	CC1CCN(c2nc3c(c(=O)[nH]2)C(c2ccccc2F)C(C#N)C(=O)N3)CC1 (stereo not given)	3	-3
41	FC1(F)Oc2cccc(C3NCCc4[nH]cnc43)c2O1 (stereo not given)	10	7
42	Cc1nn(-c2ccccc2)c(Cl)c1C1c2c(c3ccccc3oc2=O)OC(=N)C1C#N (stereo not given)	-7	-12
43	CCCCC[C@@H](O)[C@H]1C(=O)O[C@H](C)[C@@H](O)/C=C/C=C/C=C/C=C/C=C(\C)[C@@H](O)[C@H](O)[C@H](O)C[C@H](O)C[C@H](O)C[C@H](O)C[C@H](O)C[C@@H]1O	-8	-17
44	NC(N)=NOCC[C@H](N)C(=O)O	-1&0	-4&-8
45	O=C(Nc1cccnc1)c1cccn(Cc2ccccc2Cl)c1=O	-2	-1
46	Nc1ncccc1CN1C[C@@H]2[C@@H]3CC[C@@H](C3)[C@@H]2C1	1	0
47	CN1C(=O)C(C2c3ccccc3Oc3c2c(=O)n(C)c(=O)n3C)C(=O)N(C)C1=O (stereo not given)	-5	-10
48	Cn1nc(-c2cccc3c2CCNC3)c2cc(F)ccc21	2	-3

# (cont.)
entry	smiles	NPYLR7 agonist	NPYLR7 agonist max-min
49	COc1cccc(CC(C)NCc2n[nH]c3c2CCCCC3)c1 (stereo not given)	7	5
50	O=C1CN(O)C(c2ccccc2)=c2cc(Br)ccc2=N1	1	-1
51	COC(=O)CCCCC(=O)Nc1ccc2[nH]cc(CCN3CCc4ccccc4C3)c2c1	5	-8
52	CCn1nc(C)c(CNC(C)Cn2ccnc2)c1C (stereo not given)	14	10
53	Cn1cncc1-c1cccc2c1CCNC2	4	3
54	CC1(C)S[C@@H]2[C@H](N)C(=O)N2C1C(=O)O (stereo not given in full)	4	4
55	CN1C(=O)C(=Cc2cccc(OCCOc3ccc([N+](=O)[O-])cc3)c2)C(=O)N(C)C1=O	2	3
56	CC(=O)Nc1cccc(CNc2ccc(C#N)c(Cl)c2)c1	9	3
57	C=CCOC(CN1CCN(C(=O)COc2ccc(Cl)cc2)CC1)c1cccc(N2CCCC2)c1 (stereo not given)	-4	7
58	FC(F)(F)CCc1ccnc(N2CCCN3CCC[C@H]3C2)n1	-2	-2
59	Cc1ccc(CN2[C@@H]3CC[C@H]2CN(C)C(=O)C3)s1	16	7
60	O=C(Nc1ccc(Br)cc1)c1cc(Br)cc(Br)c1O	1	-10

# Following part
entry	smiles	NPYLR7 agonist	NPYLR7 agonist max-min
61	Cc1cc(C)c(C2=NCCN=C(C(F)(F)F)C2)c(=O)[nH]1	-1	-1
62	CC(Cc1ccc(Cl)cc1)NC(=O)C(C)n1cncn1 (stereo not given)	2	0
63	CC[C@]12CCCN3CCC4(c5ccccc5NC4C(C(=O)O)C1)C32 (stereo not given in full)	2	-1
64	CCOC(=O)N(c1ccccc1)P1(=S)OCC(C)O1 (stereo not given)	0	2
65	Cc1ccc(NC(=O)C(C2CCCC2)N2CCN(C(=O)Cc3ccccc3)CC2)cc1F (stereo not given)	1	2
66	CSc1nc(C)cc(N2CCN3CCN(C)C(=O)C3C2)n1 (stereo not given)	19	5
67	CCOP(S)(=NN(Cc1ccccc1)C(=O)c1ccccc1)OCC	10	4
68	NC1(c2ccc3c(c2)OCCO3)CCCC1	-1	2
69	CCCN1C2CCC1CC(OC(=O)c1ccccc1)C2 (stereo not given)	6	5
70	CN(C)C(CN)c1ccccc1Cl (stereo not given)	0	20
71	Cc1ccc(N2CCCNCC2)nn1	13	10
72	COc1cccc(CC(=O)N2CCN3C[C@@H](C(N)=O)[C@H](c4ccccc4)[C@H]3C2)c1	2	8

# Remaining list, next part
entry	smiles	NPYLR7 agonist	NPYLR7 agonist max-min
73	Cc1ccc(N2C(=O)NC(=O)/C(=C/c3cn(C)c4ccccc34)C2=O)cc1	2	1
74	N#Cc1ccc(NCC(=O)N2CCCC2)cc1C(F)(F)F	0	-2
75	COc1ccc(C(N)Cc2ccccc2C)cc1OC (stereo not given)	4&7	3&5
76	CN(C)CCN(C(=O)Cc1ccccc1)c1nc2c(F)cc(F)cc2s1	-6	-13
77	CCOC(=O)C1C(=O)C2CCN1CC2 (stereo not given)	-6	-14
78	O=S(=O)(c1ccc(Oc2ccccc2)cc1)N1CCN(CCOC(c2ccccc2)c2ccccc2)CC1	5	1
79	Cc1cc(C(=O)OC(C)C(=O)NCCc2ccccc2)c(C)n1C1CC1 (stereo not given)	5	-1
80	CC(C)NNP(=S)(NNC(C)C)c1ccccc1	-3	-4
81	CSCCC(=O)N1C2CCC1c1ccccc12	-2	-9
82	C=CCOC(CN1CCN(C(=O)Cc2cccc(OC)c2)CC1)c1cccc(N2CCCC2)c1 (stereo not given)	4	1
83	COc1cccc(C(CN2CCN(C(=O)Cc3cccs3)CC2)OCc2cccc(Cl)c2)c1 (stereo not given)	7	0
84	CCOC(=O)[C@@]12C(=O)C(=O)N[C@]1(c1ccccc1)C1C=CCCC12 (stereo not given in full)	-3	-7

# Later entries.
entry	smiles	NPYLR7 agonist	NPYLR7 agonist max-min
85	Clc1ccccc1C1NCc2ccccc2-n2cccc21 (stereo not given)	-1	-5
86	CC(C)c1ccc(S(=O)(=O)N2CCN(CCOC(c3ccc(Cl)cc3)c3ccc(Cl)cc3)CC2)cc1	21	11
87	O=S(=O)(c1ccc(Cl)cc1Cl)N1CCN(CCOC(c2ccc(F)cc2)c2ccc(F)cc2)CC1	2	-6
88	Clc1ccc(C(c2ccc(Cl)cc2)C(Cl)(Cl)Cl)cc1	-4	-9
89	CC1(C)C[C@H]2C[C@@H](Oc3ccccn3)[C@H](N3CCCC3)[C@]2(O)CO1	9	24
90	Brc1ccc2nc(N3CCNCC3)sc2c1	-3	-6
91	O=C(Cc1c(F)cccc1F)N1CCN(Cc2cccc(-c3noc(-c4cccc(C(F)(F)F)c4)n3)c2)CC1	9	7
92	COc1ccc(N2CCN(Cc3cc(C)c(C)cc3O)CC2)cc1	-2	-3
93	FC(F)(F)c1cccc(N2CCNCC2)c1	-5&14&-12	-7&5&-16
94	COC(=O)C1(OC(=O)c2cc(OC)c(OC)c(OC)c2)CC2CCC(C1)N2C (stereo not given)	0	6
95	COc1ccc(CC(=O)N2CCN(C(c3ccc(Cl)cc3)c3ccc(Cl)cc3)CC2)cc1	-5	-1
96	CS(=O)(=O)c1cccc(C(=O)Nc2ccc([N+](=O)[O-])cc2C(=O)c2ccccc2)c1	19	13

# New compounds follow:
entry	smiles	NPYLR7 agonist	NPYLR7 agonist max-min
97	N=C1OC2=C(C(=O)CCC2)C2(C(=O)Nc3ccc(Br)cc32)C1C(=O)OCc1ccccc1 (stereo not given)	-21	-12
98	CCc1ccccc1NC(=O)c1cccn(Cc2ccccc2C)c1=O	14	3
99	O=C1NC(=O)C(=Cc2cn(Cc3ccccc3)c3ccccc23)C(=O)N1	7	5
100	CC(C)(C)P(=O)(c1ccncc1)N1CCCCCC1 (stereo not given)	3	1
101	C/C=C(/C)C(=O)O[C@H]1CC[C@@]2(C)[C@@H]3CC[C@H]4[C@]5(O)C[C@H](O)[C@@]6(O)[C@@H](CN7C[C@@H](C)CC[C@H]7[C@@]6(C)O)[C@]5(O)C[C@@]42O[C@]13O	-8	-9
102	CN1CCN(Cc2ccccc2OC2CCCC2)CC1CCO (stereo not given)	6	5
103	CC(C)=CCCC1(C)C=Cc2c(O)c3c(c(CC=C(C)C)c2O1)OC12C(CC4CC1C(C)(C)OC2(C/C=C(/C)C(=O)O)C4O)C3=O (stereo not given)	-10	-18

# This is a subset; count on the stated rates, not on these rows.
